High-throughput results as filed in PubChem.
UCH37 DUB inh: blocks the human deubiquitinase UCH37; hit rate 0.33% among 330,000; purified proteasome/UCH37, Ub-AMC cleavage fluorescence; inhibition, % (no concentration beside the values);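 active = mean of two replicates above 20%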;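 note: 0% = compound-free wells with enzyme and 100% = wells lacking proteasome; stock transfer was 100 nL into about 20 µL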
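assay system = human UCH37 enzyme supplied as purified proteasome complex | amount = proteasome at 0.15 nM in the dispensed enzyme solution | schedule = 30 min compound-proteasome preincubation then 25 min substrate reaction, room temperature | measured by = fluorescence, ex 355 nm, em 460 nm | benchmarks = no-proteasome wells (full inhibition) and compound-free wells (no inhibition)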
Calb FLC: C. albicans growth modulation with fluconazole; hit rate 0.57% among 300,000; growth inhibition, % (no concentration beside the values); AID 1979; C. albicans CaCi-2 (fluconazole-resistant clinical isolate) + fluconazole, Alamar Blue growth, 48 h;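 active = most replicates above 75%; inconclusive = exactly half above 75%; inactive = most below 75%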;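 note: all wells also contain fluconazole at 8 µg/ml as a sub-toxic cotreatment; 0% = median of DMSO wells and 100% = median of geldanamycin control wells; wells of about 8 µL received 7.5 nL stock; the first replicate is given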
RanGTP-Imp inh: inhibitors of RanGTP-importin-beta interaction, primary screen, biochemical, FRET, CFP-Ran, YFP-importin-beta, homogeneous | inhibition, % (test concentration not listed) | AID 2216 | cell-free CFP-Ran/YFP-importin-beta FRET ratio | hit rate 1.1% among 300,000;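 active = most replicates above 15%; inconclusive = exactly half above 15%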;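 note: 0% = DMSO wells and 100% = Ran loaded with GDP instead of GTP; wells of about 40 µL received 100 nL stock; the first replicate is given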
Beta cell apopt: blocks beta cell apoptosis. INS-1E cytokine-induced death, ATP luminescence, 48 h; percent of positive-control rescue, neutral wells zero. hit rate 0.8% among 300,000. AID 435005. protection from apoptosis, % (no concentration beside the values);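 active = all replicates at 75% or more, or half of them and the mean; inconclusive = half reach 75% but not the mean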;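 note: 0% = cytokine-treated negative control wells and 100% = positive control rescue; higher means more ATP so stronger rescue from cytokine killing; wells of about 40 µL received 100 nL stock; the first replicate is given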
A1 inh: inhibitors of the anti-apoptotic protein A1, read as caspase activation; hit rate 0.066% among 330,000; MEF A1-2A-BIM cells, Caspase-Glo 3/7 luminescence, 3 h; percent of clofoctol response, vehicle zero; caspase activation, % (no concentration beside the values); AID 2462;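 active = over half of replicate activation scores above 10%, or exactly half above 10 with the replicate mean above 10; inconclusive = replicate mean below 10 yet half the replicates above 10; inactive = over half of replicates below 10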;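 note: wells of about 30 µL received 50 nL stock; many hits fall short of the cut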
LANA-H2B inh: blocks KSHV LANA binding to histone H2A/H2B; Q9QR71; inhibition, % (test concentration not listed); cell-free LANA-H2A/H2B peptide, fluorescence polarization; hit rate 0.6% among 320,000; in the data active = inhibition mostly above about 10%, no sharp cut-off; inactive = mostly below about 6.7%;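 note: stock transfer was 7.5 nL into about 10 µL; 0% = median of vehicle wells and 100% = median of positive control wells; one replicate is shown; the record names a cut of 25% in any replicate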
Target sequence (Q9QR71 whole entry, looked up): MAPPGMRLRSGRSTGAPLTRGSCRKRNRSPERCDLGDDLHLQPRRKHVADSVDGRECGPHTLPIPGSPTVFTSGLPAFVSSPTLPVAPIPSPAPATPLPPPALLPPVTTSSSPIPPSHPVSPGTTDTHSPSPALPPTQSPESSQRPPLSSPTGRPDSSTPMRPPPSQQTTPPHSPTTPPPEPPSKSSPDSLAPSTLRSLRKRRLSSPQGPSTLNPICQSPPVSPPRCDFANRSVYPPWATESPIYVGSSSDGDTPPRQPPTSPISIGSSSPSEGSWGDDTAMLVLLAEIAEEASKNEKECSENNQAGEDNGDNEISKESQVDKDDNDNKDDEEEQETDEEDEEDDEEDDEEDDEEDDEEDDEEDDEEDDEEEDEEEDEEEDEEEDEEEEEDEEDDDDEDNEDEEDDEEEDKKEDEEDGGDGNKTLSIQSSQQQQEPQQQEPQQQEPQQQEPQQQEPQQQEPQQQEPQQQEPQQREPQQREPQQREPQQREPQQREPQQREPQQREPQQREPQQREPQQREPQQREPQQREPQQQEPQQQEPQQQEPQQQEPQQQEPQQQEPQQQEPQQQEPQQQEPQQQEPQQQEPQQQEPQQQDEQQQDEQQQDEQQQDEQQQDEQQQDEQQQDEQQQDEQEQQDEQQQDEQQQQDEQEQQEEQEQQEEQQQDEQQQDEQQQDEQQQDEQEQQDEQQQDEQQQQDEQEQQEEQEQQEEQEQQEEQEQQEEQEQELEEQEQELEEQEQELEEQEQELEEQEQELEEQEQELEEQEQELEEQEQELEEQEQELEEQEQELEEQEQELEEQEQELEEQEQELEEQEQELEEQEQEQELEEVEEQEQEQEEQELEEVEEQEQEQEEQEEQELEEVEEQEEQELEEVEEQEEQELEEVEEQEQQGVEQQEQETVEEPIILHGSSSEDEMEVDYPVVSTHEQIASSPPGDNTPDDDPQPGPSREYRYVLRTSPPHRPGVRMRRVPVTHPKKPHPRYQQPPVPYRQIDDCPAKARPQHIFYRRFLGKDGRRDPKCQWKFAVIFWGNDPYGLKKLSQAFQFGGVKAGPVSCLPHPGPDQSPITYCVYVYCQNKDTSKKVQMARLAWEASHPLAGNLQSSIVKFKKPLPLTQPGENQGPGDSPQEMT
B2AR ag: human beta-2 adrenergic receptor agonism by FAP | P07550 | Am2.2-beta2AR cells, FAP receptor internalization, flow cytometry; reference of the scale not given here | response, % (test concentration not listed) | hit rate 0.43% among 340,000 | AID 504454;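 active = response above a set limit, near 3 SD of response in nonfluorescent compounds, cut at about 42% in these data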;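 note: stock transfer was 100 nL into about 11 µL; a reference agonist was the positive control; negative values mostly stem from fluorescent compounds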
T cruzi inh: T. cruzi replication inhibition; T. cruzi beta-gal in NIH3T3, luminescence, 90 h; inhibition, % (no concentration beside the values); hit rate 1.4% among 300,000;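 active = mean inhibition across valid replicates above about 55%, limit read from the data; inconclusive = mean below that limit but half or more replicates reach it; inactive = mean below it, under half of replicates reach it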;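 note: signal also drops with host cell toxicity which is not excluded here; 0% = plate median of DMSO wells and 100% = zero luminescence signal; higher percent means less beta-gal luminescence so fewer parasites; stock transfer was 50 nL into about 50 µL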
Numbers without * were called inactive; ? = inconclusive; nt = no result given.

SMILES | UCH37 DUB inh | Calb FLC | RanGTP-Imp inh | Beta cell apopt | A1 inh | LANA-H2B inh | B2AR ag | T cruzi inh
O=C(Nc1ccc(F)cc1)NC1CCCCC1 | 2.5 | -5 | -2.8 | 2 | -0.9 | 5.6 | -2 | -4
O=C(c1ccccc1)N1CCN(S(=O)(=O)c2ccccc2)CC1 | 5.6 | -8 | -2.2 | 1 | ? | -1.4 | 4 | -7
COc1ccc(C(=S)Nc2ccc(C)cc2)cc1 | 4.9 | -4 | -1.6 | -3 | -0.1 | 3.9 | -17 | -17
CCOc1ccc(C(=O)NC(C(=O)NCC2CCCO2)C(C)C)cc1 (stereo unspecified) | 1.3 | -5 | -1.0 | -5 | -0.5 | -3.1 | -4 | 6
COc1ccc(NC(=O)c2ccccc2NS(=O)(=O)c2ccc(C)cc2)c([N+](=O)[O-])c1 | 5.1 | -1 | 6.1 | 6 | 0.5 | 1.5 | 1 | -2
Cc1cc2oc(=O)cc(CN3CCN(Cc4ccc5c(c4)OCO5)CC3)c2cc1C | 0.9 | -2 | 0.0 | 4 | -1.3 | 0.0 | -9 | 45
COc1cc(C2c3sc(=O)[nH]c3SC3C(=O)N(c4ccc(Br)cc4)C(=O)C32)ccc1O (stereo unspecified) | 0.3 | 11 | -1.3 | -1 | 0.5 | 1.3 | -2 | -3
CC(=O)Nc1ccc(NC(=O)c2c(-c3ccccc3Cl)noc2C)c(C)c1 | 0.7 | -2 | -1.0 | 0 | -0.6 | -11 | 0 | -15
COc1ccccc1C(=O)Nc1cccnc1 | 2.4 | -2 | -1.5 | nt | 0.5 | 0.1 | -9 | -10
COC(=O)c1noc(C)c1-c1ccnn1C(=O)c1ccc(Cl)cc1 | 6.5 | 3 | ? | nt | -0.6 | 3.3 | -1 | -2
Cc1nnc(NC(=O)c2cc(-c3ccco3)nc3ccccc23)s1 | nt | 5 | -0.6 | -3 | -0.1 | 3.0 | -11 | 10
CSc1nc(C)cc(-n2ccc(=O)[nH]c2=O)n1 | 0.2 | 35 | -0.5 | -2 | 0.4 | -2.3 | 20 | -9
COc1ccc(-c2nc(CS(=O)(=O)CC(=O)NC3CCCCCC3)c(C)o2)cc1 | 1.5 | 11 | 2.6 | 9 | 0.9 | 1.4 | 4 | 15
CC(C)CNC(=O)c1coc(=O)c(Br)c1 | 8.6 | -2 | -8.7 | -14 | -0.1 | 0.5 | -6 | -2
COc1ccccc1C(=O)Nc1ccc(C(=O)/C=C/c2cccs2)cc1 | 1.8 | -14 | -2.2 | 8 | -0.2 | -3.8 | 5 | 0
Cc1cccc(C)c1N1CCN(C(=O)N2CCCCC2)CC1 | 3.9 | -30 | -1.1 | 3 | -0.2 | 0.3 | 5 | 15
Oc1ccc(-c2csc(-c3ccccc3)n2)cc1O | 1.3 | -49 | -4.4 | nt | -1.2 | -0.5 | 1 | -37
COc1ccc(Cc2nn3c(-c4ccccc4OC)nnc3s2)cc1 | 3.1 | 4 | 6.8 | 4 | 1.1 | 3.5 | -4 | 7
COC(=O)c1cccc(-n2c(CCC(=O)O)ccc2-c2cccs2)c1 | 3.4 | 3 | 6.9 | -9 | -0.4 | 2.1 | -5 | 4
Cc1onc(-c2ccccc2)c1C(=O)Nc1sc2c(c1C#N)CCC(C)C2 (stereo unspecified) | -1.0 | 11 | 10 | 19 | 0.7 | -0.7 | -2 | -1
O=C(NNC(=O)C12CC3CC(CC(C3)C1)C2)c1cnccn1 | 0.4 | 104* | 1.6 | 1 | 0.1 | -5.7 | -4 | -26
c1ccc(-c2nc(NCCCn3ccnc3)c3ccccc3n2)cc1 | nt | 9 | ? | 3 | 0.1 | -0.7 | 2 | 20
CCCCNC(=S)NNC(=O)c1cc(-c2cccnc2)nc2ccccc12 | 6.6 | 54 | 0.4 | 4 | -0.4 | -4.9 | -4 | 11
CNc1cc(N2CCCC2)ccc1[N+](=O)[O-] | 1.5 | 14 | 5.0 | -5 | 0.9 | -2.2 | 0 | 11
C#CCNC(=O)C1=C[C@H](c2coc3ccccc3c2=O)[C@@H](CCCO)[C@H](OCC)O1 | 1.9 | 2 | -1.6 | 0 | 0.7 | -1.7 | -4 | 3

Three entries out of the list above, arranged by their value in UCH37 DUB inh, low to high:
smiles,UCH37 DUB inh
Cc1cc2oc(=O)cc(CN3CCN(Cc4ccc5c(c4)OCO5)CC3)c2cc1C,0.9
COc1ccc(C(=S)Nc2ccc(C)cc2)cc1,4.9
O=C(c1ccccc1)N1CCN(S(=O)(=O)c2ccccc2)CC1,5.6

Next section
SMILES | UCH37 DUB inh | Calb FLC | RanGTP-Imp inh | Beta cell apopt | A1 inh | LANA-H2B inh | B2AR ag | T cruzi inh
Cc1cc(C(=O)COC(=O)c2ccc[nH]c2=O)c(C)n1-c1ccc(F)cc1 | 0.6 | 1 | 0.7 | -2 | -0.6 | 1.9 | -5 | -45
Clc1ccc(-c2cc(-c3nnc4n3CCCCC4)c3ccccc3n2)cc1 | 3.1 | 19 | -1.9 | 100* | -0.1 | -5.2 | -9 | 9
O=C1CNC(=S)N1CCc1ccc(O)c(O)c1 | 1.3 | -7 | 4.1 | -6 | 0.9 | -1.5 | 3 | 2
Cc1ccc(Cc2nc(-c3cccc(C)c3)no2)cc1 | 0.5 | -14 | 0.7 | -5 | -1.4 | 0.6 | 16 | 3
COc1ccc(-c2nnn(CC#N)n2)cc1OC | -1.1 | -3 | 2.3 | -4 | 0.1 | 4.3 | 0 | -17
Cc1cccc(NC(=O)C2Cc3ccccc3CN2C(=O)OCc2ccccc2)c1C (stereo unspecified) | 3.1 | 7 | -0.1 | -3 | 0.2 | 0.8 | -3 | 18
COc1ccc([N+](=O)[O-])cc1NC(=O)COC(C)=O | 4.0 | 18 | -3.4 | -5 | 0.3 | -4.0 | 1 | 2
CCN(CCn1cccn1)C(=O)c1cc(COc2cc(C)ccc2C)on1 | 1.8 | 9 | 4.1 | -1 | 1.7 | 37* | -5 | 12
COc1ccc(C(=O)/C=C/c2ccc(OC)c(COc3ccccc3F)c2)cc1 | 6.4 | 0 | -1.7 | -3 | 1.0 | -3.9 | 26 | 2
COCCNC(=S)N/N=C(\C)c1ccc(-n2ccnc2)cc1 | nt | 9 | -2.1 | 15 | 0.0 | -5.2 | -10 | -19
N#CC(=NCc1cccnc1)C1=C(O)c2ccccc2C1=O | 13 | 21 | 5.8 | -4 | -1.2 | -2.4 | -8 | -7
CC(C)Oc1ccccc1-c1cc(C(=O)N/N=C/c2cccnc2)c2ccccc2n1 | nt | 5 | -2.5 | 10 | 0.2 | 3.6 | -1 | 2
COc1ccc(C(=O)NCCS(=O)(=O)N(C)Cc2ccccc2)cc1 | 4.8 | 1 | 1.5 | 1 | 0.0 | 3.3 | 0 | -5
COc1ccccc1CN1CCN(Cc2nc(-c3ccccc3)no2)CC1 | -1.0 | 11 | -0.1 | 4 | -0.1 | 3.7 | -9 | 53
Cc1ccc(S(=O)(=O)N(CC(=O)Nc2ccc(Cl)cc2)C(=O)N2CCN(C)CC2)cc1 | 5.9 | -11 | -5.3 | nt | nt | nt | 1 | -7
CCC(=O)Nc1ccc2c(c1)nc(CCN1CCN(C)CC1)n2C | 1.8 | -9 | -1.5 | 1 | -0.7 | 4.0 | 3 | -1
COc1ccc(S(=O)(=O)N2CCN(C)CC2)cc1NC(=O)c1ccccc1C | 0.3 | -3 | -0.5 | -3 | 0.1 | 4.6 | 3 | -1
Cc1ccc(NC(=O)CCCCCN2C(=O)[C@@H]3Cc4ccccc4CN3C2=O)c(C)c1 | -0.3 | 10 | -2.7 | -7 | 0.4 | 2.9 | -1 | 4
O=C(N[C@@H](Cc1ccccc1)C(=O)OCc1ccccc1)c1nc[nH]c1C(=O)N1CCc2ccccc2C1 | 4.5 | -14 | -2.4 | -11 | -0.6 | 4.9 | 30 | -18
O=S(=O)(c1cc(Cl)c(Cl)cc1Cl)N1CCN2CCCC2C1 (stereo unspecified) | 2.5 | -1 | 3.4 | -4 | -0.2 | -3.6 | -10 | 10
CCN(CC)c1ccc(/C=C2\NC(=O)NC2=O)cc1 | 0.8 | -23 | ? | 4 | -0.6 | -2.7 | -4 | -25
O=C(COC(=O)c1cccc(NS(=O)(=O)c2ccc(F)c(F)c2)c1)NC(=O)NC1CCCCC1 | 4.0 | 64 | -2.5 | -3 | 0.2 | 2.6 | -8 | -1
CN(CC(=O)Nc1ccccc1C(F)(F)F)C(=O)CSc1nnnn1C | 1.7 | -8 | 3.4 | nt | -0.4 | 4.4 | -2 | -20
Cc1ccc(S(=O)(=O)Nc2nc3ccccc3nc2NCC2CCCO2)cc1C (stereo unspecified) | -84 | 12 | 3.8 | -6 | 0.1 | 2.3 | -2 | 14
COc1ccccc1CN1CC(C(=O)NCc2ccc(SC)cc2)CCC1=O (stereo unspecified) | 5.0 | 2 | -1.5 | nt | nt | nt | -10 | -5

New compounds follow
SMILES | UCH37 DUB inh | Calb FLC | RanGTP-Imp inh | Beta cell apopt | A1 inh | LANA-H2B inh | B2AR ag | T cruzi inh
COc1ccc(-c2cc(C(=O)Nc3cc(Cl)ccc3O)no2)cc1 | 0.5 | -5 | -0.2 | 2 | -2.7 | -3.3 | 12 | -14
N#Cc1ccccc1OCc1nnc(-c2ccccc2Br)o1 | 3.6 | 9 | 3.3 | 4 | -1.5 | 1.9 | -8 | 4
CCn1c(=O)n(CC(=O)NC2CCCC(C)C2C)c(=O)c2ccccc21 (stereo unspecified) | -1.9 | -2 | 1.2 | -4 | 0.3 | -3.2 | -13 | 19
CS(=O)(=O)N(CC(=O)N1CCOCC1)c1cc(C(F)(F)F)ccc1Cl | 0.5 | -5 | 0.3 | nt | 0.4 | -1.7 | 0 | -16
COc1ccc(CC(=O)OCc2nnc(-c3ccccc3)o2)cc1 | -1.1 | -5 | -1.3 | -5 | -0.5 | 2.8 | -12 | -8
Cc1ccc(CNC(=O)C2CCCN2C(=O)NCc2ccccc2)cc1 (stereo unspecified) | 1.3 | -5 | -1.5 | -6 | 0.3 | -0.3 | -1 | -13
COc1ccc(CCN(C)C(=O)C2CC(=O)N(Cc3ccc(C)cc3)C2)cc1OC (stereo unspecified) | 0.4 | nt | nt | 3 | -0.5 | -4.5 | 0 | nt
O=C(NCc1ccco1)C(c1ccco1)N(CCc1ccccc1)C(=O)Cn1nnc2ccccc21 (stereo unspecified) | 0.9 | 3 | 2.3 | 6 | -0.3 | -0.4 | -3 | 20
CCCS(=O)(=O)N1CCN(C(=O)COc2ccccc2)CC1 | 0.0 | -8 | 2.9 | nt | -0.2 | -3.1 | -3 | -11
COc1ccc(NC(=O)CN2C(=O)COc3ccc(C)cc32)c(OC)c1 | 0.9 | 7 | 2.8 | nt | -0.6 | -7.1 | 1 | 3
COc1ccc(C(=O)C(CCCCC(CN(C)C)C(=O)c2ccc(OC)cc2)CN(C)C)cc1 (stereo unspecified) | -2.3 | ? | 0.1 | 1 | 0.3 | 1.3 | -4 | 27
Cc1ccc2c(c1)N(CCC(=O)NCCCN1CCCC1)C(=O)CO2 | 1.8 | 2 | -3.8 | -2 | 0.1 | -1.3 | 0 | 6
CCOc1cc(C)c(S(=O)(=O)NC2CC(C)(C)NC(C)(C)C2)cc1C | 0.3 | 12 | -2.9 | nt | 0.1 | 5.8 | -9 | 12
Clc1ccccc1-c1nnc(-c2cccs2)o1 | -4.4 | -7 | 5.1 | nt | -12 | -0.6 | 0 | -10
